# Source: PubChem (Broad Institute)
# Hedgehog: Drosophila hedgehog isoform A inhibitors, primary screen, biochemical, plate reader, single concentration (AID 588832); Biochemical plate reader assay, Hedgehog inhibition; hits give high values; inhibition, % at 30.3 µM; 8,000 tested, under 10 active; in the data active = inhibition from about 57%;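 note: 0% = neutral control wells and 100% = positive control wells; cholesterol-driven self-cleavage of fly hedgehog protein by fluorescence polarization; read one hour after cholesterol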
# Active calls of the source: *. The list is partial; the hit share may differ from the screen's.
SMILES,Hedgehog
COc1ccc(CN(C(=O)COc2ccc(C)c(C)c2)C2CCS(=O)(=O)C2)cc1OC (stereo not drawn),0.0
Cc1cc2ccccc2n1CCNC(=O)c1ccc(Br)o1,7.2
CCOC(=O)N1CCC(N2Cc3cccc(C(=O)NCc4ccc(C)cc4)c3C2=O)CC1,2.8
Cc1ccc(C)c2sc(NC(=O)c3ccc(N4C(=O)CCC4=O)cc3)nc12,5.0
Cc1ccc(NC(=O)CCS(=O)(=O)c2ccc3nc(C)sc3c2)cc1,20.0
CN(C)c1ccc(C2C3C(=O)NC(=O)C3ON2c2ccc(Cl)cc2)cc1 (stereo not drawn),31.9
Cc1c(C(=O)N(Cc2ccccc2)C2CCS(=O)(=O)C2)oc2ccccc12 (stereo not drawn),3.5
Cc1cccc(NC(=O)[C@H](Cc2c[nH]c3ccccc23)NC(=O)[C@@H]2Cc3ccccc3CN2)c1,4.9
C=C(C)[C@@H]1C2=CC(C(=O)OC)=C(C[C@H](C(=C)C)[C@H]3O[C@H]3C3=C[C@H]1OC3=O)O2,5.2
CCC1CCCCN1Cc1nc2c(c(=O)n(C)c(=O)n2C)n1Cc1ccccc1 (stereo not drawn),3.6
Cn1cc(SCC(=O)Nc2nccs2)c2ccccc21,4.4
CCOc1ccc(/C=N/NC(=O)c2ccccc2O)cc1CN1CC2CC(C1)c1cccc(=O)n1C2 (stereo not drawn),8.9
Cc1ccc2oc(=O)c3cnn(CC(=O)N4CCN(c5ccccn5)CC4)c3c2c1,1.7
Cc1cc(OC(C)C(=O)NC(Cc2c[nH]c3ccc(O)cc23)C(=O)O)c2c(C)c(C)c(=O)oc2c1 (stereo not drawn),6.9
CCOc1ccc(CCNC(=O)C2=C(C)C(=O)OC23CCC(C)CC3)cc1 (stereo not drawn),9.5
Cc1coc2c1c(C)cc1oc(=O)c(CC(=O)NCCCN3CCCC3=O)c(C)c12,12.3
CCc1cc(=O)oc2cc(OCC(=O)N3CCC[C@H]3C(=O)O)ccc12,6.6
O=C(CSCC(=O)N1CCCCC1)Nc1nc(-c2ccccc2)c(-c2ccccc2)s1,5.2
O=S(=O)(c1cc(Cl)ccc1Cl)N1CCN(Cc2ccc3c(c2)OCO3)CC1,4.2
O=C(NCCc1cn2ccsc2n1)c1cccs1,14.5
CCCc1nc(SCC(=O)c2ccccc2)c2c(=O)n(C)c(=O)n(C)c2n1,3.8
O=C(NCCN1CCOCC1)c1ccc(CS(=O)(=O)c2ccc(Br)cc2)o1,19.2
Cc1ccc(N2CC(c3nc4ccccc4n3C)CC2=O)cc1C (stereo not drawn),6.4
CN1CCN(Cc2c(O)ccc3c(=O)c(Oc4ccccc4Cl)c(C(F)(F)F)oc23)CC1,8.3
CCOc1ccc(CCNC(=O)CCc2nnc3ccc(N4CCOCC4)nn23)cc1,19.2

# Additional results:
SMILES,Hedgehog
Cn1cc(Cl)c(C(=O)NC2CCCC2)n1,3.6
Cc1ccc2c(c1)NC(=O)C(CC(=O)Nc1ccc(CN3CCC(C)CC3)cc1)O2 (stereo not drawn),4.5
CCCSc1nnc(-c2c[nH]c3ccccc23)n1CC,-3.6
CSc1ccccc1NC(=O)C1=CC(c2ccc(C)cc2)=NS(=O)(=O)N1C,1.8
CCN(CC)CCCNC(=O)Cn1cc2c(n1)CCC(C)C2 (stereo not drawn),10.0
Cc1oc2cc3oc(=O)c(CCC(=O)NC4CC4)c(C)c3cc2c1C,0.0
Cn1c(=O)cc(OCCCC(=O)NCCN2CCN(c3ccccc3F)CC2)c2ccccc21,8.4
CCOC(=O)c1ccc(NC(=O)CSc2nc(C)nc3c2c(=O)n(C)c(=O)n3C)cc1,1.8
Cc1cc(=O)oc2cc(OCC(=O)N3CC[C@@]4(O)CCCC[C@H]4C3)ccc12,1.7
CC1=C(C(=O)NCCc2ccc(C)cc2)C2(CCC(C)CC2)OC1=O (stereo not drawn),0.9
Cc1cc(Nc2ccc(F)cc2Cl)n2nc(C)nc2n1,5.0
CCOC(=O)N1CCN(C(=O)CS(=O)(=O)c2cn(Cc3ccc(Cl)cc3)c3ccccc23)CC1,11.5
Cc1nc2ccccc2c2oc(C(=O)NCCN3CCCCC3C)cc12 (stereo not drawn),0.9
Cc1cc(OC(C)C(=O)NCC2CCC(C(=O)O)CC2)c2c(C)cc(=O)oc2c1 (stereo not drawn),10.3
Cc1nn(C(=O)c2ccc3c(c2)OCO3)c(N)c1-c1ccccc1,0.0
CCCCCC(=O)N[C@@H](c1ccccc1)[C@@H](O)C(=O)O[C@H]1C[C@@]2(O)[C@@H](OC(=O)c3ccccc3)C3[C@](C)(C(=O)[C@H](OC(C)=O)C(=C1C)C2(C)C)[C@@H](O)C[C@H]1OC[C@@]31OC(C)=O (stereo partly drawn),6.9
Cc1c(OCC(=O)N[C@@H](Cc2c[nH]c3ccccc23)C(=O)O)ccc2c1oc(=O)c1ccccc12,3.5
Cn1c(Cn2c(=O)sc3ccccc32)nnc1SCc1ccc(F)cc1,11.1
CCCc1nc(SCC(=O)N2CCC(Cc3ccccc3)CC2)c2c(=O)n(C)c(=O)n(C)c2n1,5.4
CCOC(=O)c1[nH]c(C)c(C(=O)NC)c1C,8.7
O=C(Cc1ccc(NC2=NC3CS(=O)(=O)CC3S2)cc1)NCCc1ccccc1 (stereo not drawn),7.2
COc1ccc(NC(=O)CSc2nc3ccccc3nc2N2CCCCC2)cc1,7.1
CC(C)(O)C(O)COc1c2ccoc2cc2oc(=O)ccc12 (stereo not drawn),12.1
COc1ccccc1CNC(=O)[C@@H](NC(=O)C1CCN(C(=O)[C@@H]2CCCN2C(=O)OC(C)(C)C)CC1)C(C)C,8.6
COc1ccc(-c2nnc(SCC(=O)NC(C)c3ccccc3)o2)cc1 (stereo not drawn),17.4

# Quoted at random: 2 records from the list, in no set order.
SMILES,Hedgehog
CCOc1ccc(CCNC(=O)C2=C(C)C(=O)OC23CCC(C)CC3)cc1 (stereo not drawn),9.5
Cc1coc2c1c(C)cc1oc(=O)c(CC(=O)NCCCN3CCCC3=O)c(C)c12,12.3

# Back to the main list with the 2 entries that preceded the break.
SMILES,Hedgehog
COc1ccccc1CNC(=O)[C@@H](NC(=O)C1CCN(C(=O)[C@@H]2CCCN2C(=O)OC(C)(C)C)CC1)C(C)C,8.6
COc1ccc(-c2nnc(SCC(=O)NC(C)c3ccccc3)o2)cc1 (stereo not drawn),17.4
CC(=O)Nc1ccc(NC(=O)[C@@H](NC(=O)N2C[C@H]3C[C@@H](C2)c2cccc(=O)n2C3)C(C)C)cc1,5.3
CCN(C(=O)c1cnc2scc(C)n2c1=O)c1ccccc1C,6.4
Cc1ccc(Cl)cc1N1CCN(S(=O)(=O)c2cnc[nH]2)CC1,5.2
CCc1cc(=O)oc2cc(OCC(=O)N3CCC(C(N)=O)CC3)ccc12,6.5
CCOc1ccc(NC(=O)CSc2nnc(Cc3cccn3C)n2-c2ccc(F)cc2)cc1,29.2
CCOc1ccc(OCC)c(Nc2cc(C)nc3ncnn23)c1,6.5
CCOC(=O)N1CCC(NC(=O)c2ccc(CS(=O)(=O)c3c(Cl)cccc3Cl)o2)CC1,16.7
O=C(NCCc1cn2ccccc2n1)C1CCCCC1,1.8
CCSc1nnc(NC(=O)CSc2nc3c(c(=O)n2CCOC)SC(C)C3)s1 (stereo not drawn),6.8
COc1cccc(C(=O)NCCn2ccc3ccccc32)c1,13.5
Cc1cccc(C2CC(c3ccc(Br)cc3)Nc3nc(N)nn32)c1 (stereo not drawn),25.0
NC(=O)C1CCN(CCCNC2CC(=O)N(Cc3ccc(N4CCCC4=O)cc3)C2=O)CC1 (stereo not drawn),16.7
Cc1cc2c(cc1S(=O)(=O)NCc1ccc(Cl)cc1)OCC(=O)N2,8.7
Cc1ccc(CCNC(=O)C2CCCN(S(=O)(=O)c3c(C)noc3/C=C/N(C)C)C2)cc1 (stereo not drawn),5.2
COc1ccc(NC(=O)C2CCCN2S(=O)(=O)c2ccc(F)cc2)cc1 (stereo not drawn),6.5
CCC(=O)NC(C)C(c1cccs1)N1CCN(Cc2ccccc2)CC1 (stereo not drawn),0.9
COc1ccccc1-c1nnc(NC(=O)C(C)SC2=NCCS2)s1 (stereo not drawn),5.4
COc1cccc(-c2nc(CS(=O)(=O)CC(=O)NCc3ccccc3)c(C)o2)c1,13.3
O=C1c2ccccc2C(Nc2ccc(S(=O)(=O)N3CCCCCC3)cc2)N1Cc1ccco1 (stereo not drawn),4.5
CN(C)c1ccc(/C=N/NC(=O)c2nnn(-c3nonc3N)c2CN2CCCCCC2)cc1,3.6
CCCCCCCCCCCC1=C(O)C(=O)C=C(O)C1=O,10.3
O=C1c2cc(CO)cc(O)c2C(=O)c2c(O[C@@H]3OC(CO)[C@@H](O)[C@@H](O)[C@@H]3O)cccc21 (stereo partly drawn),6.9
CC1=C(C(=O)OC(C)C)C(c2ccccn2)n2ncnc2N1 (stereo not drawn),5.5
Cc1cc(C)cc(NC(=O)CSc2nc3ccccc3nc2N2CCCC2)c1,9.1
O=C(CCC(=O)N1CCOc2ccc(Cl)cc21)NCCCN1CCN(c2ccccc2F)CC1,5.1

# Arranged by the number under Hedgehog (highest first): 3 of the compounds above.
Compound	Hedgehog
Cc1cc(C)cc(NC(=O)CSc2nc3ccccc3nc2N2CCCC2)c1	9.1
CCN(C(=O)c1cnc2scc(C)n2c1=O)c1ccccc1C	6.4
CC(=O)Nc1ccc(NC(=O)[C@@H](NC(=O)N2C[C@H]3C[C@@H](C2)c2cccc(=O)n2C3)C(C)C)cc1	5.3

# The listing picks up; the 2 compounds before the break are reprinted first.
SMILES,Hedgehog
Cc1cc(C)cc(NC(=O)CSc2nc3ccccc3nc2N2CCCC2)c1,9.1
O=C(CCC(=O)N1CCOc2ccc(Cl)cc21)NCCCN1CCN(c2ccccc2F)CC1,5.1
Cc1nc(CN2CCN(C(=O)c3ccc(C(C)(C)C)cc3)CC2)cs1,3.6
CC1CN(c2cc(=O)n(-c3ccccc3)c(=O)[nH]2)CC(C)O1 (stereo not drawn),7.3
CC1CN(c2cc(=O)n(Cc3ccc(F)cc3)c(=O)[nH]2)CC(C)O1 (stereo not drawn),0.9
O=C(NCc1cccnc1)c1ccc(CS(=O)(=O)c2ccc(Br)cc2)o1,12.5
Cc1ccc(NC(=O)c2cc(S(=O)(=O)N3CCCC3)cn2C)cc1C,3.6
Cc1cc(Nc2ccc(Br)cc2F)n2ncnc2n1,-30.0
Cc1ccc(C(=O)Nc2sc(Cc3ccc4c(c3)OCO4)c(C)c2C(N)=O)cc1,2.8
O=C(Cn1cc2c(n1)CCCC2)NCc1cccs1,0.0
COc1ccc(-c2cc(=O)c3cc(OC)ccc3o2)cc1,6.9
O=c1c2ccccc2[nH]c2ccccc12,7.2
C=CCOC(=O)c1ccccc1C(=O)OCC=C,8.6
CC(C)NC(=O)c1ccc(CS(=O)(=O)c2ccc(Br)cc2)o1,8.3
O=C(C1CCCCN1S(=O)(=O)c1ccc(F)cc1)N1CCN(c2ccccc2F)CC1 (stereo not drawn),5.4
COc1cccc(-c2cc(C(=O)N3CCN(Cc4ccc5c(c4)OCO5)CC3)on2)c1,20.0
COc1cccc(N2CCN(C(=O)CN(c3ccc(C)cc3)S(=O)(=O)c3c(C)n[nH]c3C)CC2)c1,1.9
COc1ccc(-c2nc(CS(=O)(=O)CC(=O)NCc3cccc(F)c3)c(C)o2)cc1,7.0
COc1ccc(-n2c(Cc3cccn3C)nnc2SCC(=O)Nc2ccc(F)cc2F)cc1,24.3
Cc1cc(Nc2ccc(F)cc2C)n2ncnc2n1,17.4
CCC(C)Sc1nc2c(c(=O)n1C)SC(C)C2 (stereo not drawn),7.7
CC1CCN(S(=O)(=O)c2nnc(NC(=O)COc3ccccc3F)s2)CC1,5.1
CCOC(=O)c1cccc(NC(=O)Cn2cc3c(n2)CCC(C)C3)c1 (stereo not drawn),10.0
COc1ccc(S(=O)(=O)N2CCOC2CNC(=O)C(=O)NCCc2ccccc2OC)cc1 (stereo not drawn),3.8
Cn1cc(SCC(N)=O)c2ccccc21,1.8
Cc1cc(=O)oc2cc(OCC(=O)NC3CCCC3)ccc12,3.5
CCOc1ccc(NC(=O)Cc2ccc(NC3=NC4CS(=O)(=O)CC4S3)cc2)cc1 (stereo not drawn),5.0

# The list goes on:
SMILES,Hedgehog
CCc1cccc(NC(=O)CS(=O)Cc2nc(-c3ccc(C)cc3)oc2C)c1 (stereo not drawn),5.1
C=CCn1c(SCCN2CCCCC2)nc2c1c(=O)[nH]c(=O)n2C,0.9
CCc1ccc(C(=O)c2cnc3ccc(OC)cc3c2N2CCN(CC)CC2)cc1,5.0
Cc1ccc2nc(-c3ccc(O)cc3)c(Nc3ccc4c(c3)OCCO4)n2c1,15.0
O=C1C=CC[C@H](/C=C/C[C@@H](O)C[C@H](O)CCc2ccccc2)O1,5.2
Cc1ccn2cc(CCNS(=O)(=O)c3ccc4c(c3)OCCO4)nc2c1,2.7
CC1CCN(c2nc3c(c(=O)[nH]c(=O)n3C)n2CCSc2ncccn2)CC1,6.2
O=C(NCc1ccc(F)cc1)c1ccc2c(=O)n3c(nc2c1)CCCCC3,0.0
COc1ccc(-c2coc3cc(O)ccc3c2=O)cc1O,6.9
Cc1c(C)c2c(OCC(=O)N3CCC(C(N)=O)CC3)cc3c(c2oc1=O)CCC(C)(C)O3,1.7
COc1cc(C(=O)N2CCN(c3ccc(C)cc3C)CC2)cc(OC)c1OC,8.7
Cc1ccccc1NC(=O)c1ccc2c(c1)N(C)CCS2,5.5
O=C(NCCn1cc(SCc2ccccc2F)c2ccccc21)c1c(F)cccc1F,14.5
Cc1c(Cc2ccccc2)c(=O)oc2c(C)c(OCC(=O)N3CCC(C(=O)O)CC3)ccc12,1.6
CCn1c(=O)cc(OCC(=O)N2CCCC2)c2ccccc21,10.0
O=C(CN1C(=O)CSc2ncccc21)Nc1cccc(Cl)c1,5.1
CCc1cc(=O)oc2c(C)c(OCC(=O)N3CCC(C(=O)O)CC3)ccc12,7.2
O=C(NCc1ccc(F)cc1)c1cc2ccccn2n1,7.0
CCc1ccc(NC(=O)Cc2ccc(NC3=NC4CS(=O)(=O)CC4S3)cc2)cc1 (stereo not drawn),3.5
COc1ccc([C@@H]2CC(=O)c3c(O)cc(O[C@@H]4OC(CO[C@@H]5OC(C)[C@H](O)[C@@H](O)[C@H]5O)[C@@H](O)[C@H](O)[C@H]4O)cc3O2)cc1O (stereo partly drawn),3.5
